Source: PubChem (National Center for Advancing Translational Sciences (NCATS))
TRPML1 ag – activates the human TRPML1 channel; activation, % (concentration not given with the values); 410,000 compounds, 0.12% hits; Q9GZU1; AID 624414; TRPML1-expressing cells, Ca2+ dye fluorescence, FDSS; host cell line not named in the record; reference of the full effect not given here; in the data active = activation above about 50%; inconclusive = about 30% to 50%; inactive = below about 30%; further: 0% is about no effect; the text of the record puts the active cut at 80%
Target sequence (Q9GZU1 whole entry, looked up): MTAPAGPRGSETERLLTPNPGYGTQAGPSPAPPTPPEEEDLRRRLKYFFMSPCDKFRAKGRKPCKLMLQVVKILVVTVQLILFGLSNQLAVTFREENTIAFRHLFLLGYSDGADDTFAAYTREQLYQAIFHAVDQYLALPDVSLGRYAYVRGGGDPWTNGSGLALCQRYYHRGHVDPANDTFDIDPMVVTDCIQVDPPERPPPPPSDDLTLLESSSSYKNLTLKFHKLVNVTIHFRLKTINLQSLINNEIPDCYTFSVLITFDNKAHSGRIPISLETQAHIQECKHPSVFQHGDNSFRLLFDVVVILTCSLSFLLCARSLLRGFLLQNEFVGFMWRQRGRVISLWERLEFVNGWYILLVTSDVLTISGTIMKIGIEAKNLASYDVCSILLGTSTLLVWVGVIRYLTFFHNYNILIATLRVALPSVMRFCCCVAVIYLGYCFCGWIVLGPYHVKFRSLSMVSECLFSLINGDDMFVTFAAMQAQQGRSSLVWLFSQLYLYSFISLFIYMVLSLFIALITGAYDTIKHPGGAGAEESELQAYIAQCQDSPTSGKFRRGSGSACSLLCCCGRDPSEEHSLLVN
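Cells: TRPML1-DL, 1X Tet inducer, ~16 h at 37 degrees C/5% CO2. Dye: ABD Ca8 no-wash + quencher, 45-90 min RT. Read: 10 s baseline, compound add, 110 s agonist phase; 54-4 EC80 (4uM final), 110 s antagonist phase.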
TRPV1 PAM – enhances activation of the human vanilloid receptor TRPV1. Q8NER1. TRPV1-expressing cells, Fluo-8 calcium influx, capsaicin EC20 potentiation; host cell line not named in the record; control for the full effect not named in the record. potentiation, % at 8.33 µM. 320,000 compounds, 0.02% hits; active means potentiation above 80%; inconclusive means 30% to 80%; inactive means below 30%; further: 0% is about no effect
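Cells expressing TRPV1 were dye-loaded with Fluo-8 and read kinetically: 10 s baseline, 3 min after compound (agonist portion), then 2 min after EC20 capsaicin (allosteric enhancer portion). Calcium-bound dye fluorescence at 480/520 nm.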
Six1-Eya2 inh – inhibitors of human Six1/Eya2 interaction. Q15475+O00167. activity change, % (no concentration beside the values). AlphaScreen GST-Six1/His-Eya2 binding, biochemical; hits give low values; control for the full effect not named in the record. 360,000 compounds, 0.56% hits; in the data active = activity change below about -65%; inconclusive = about -30% to -65%; inactive = above about -30%; further: on the % scale 0 is the no-effect control and ±100 the full control effect
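AlphaScreen luminescence read after one hour at 37 °C in darkness. Pin-transferred compounds met GST-Six1 and His-Eya2 protein (5X stock 250 nM/500 nM) plus glutathione donor and Ni-chelate acceptor beads (5X, 50 ug/mL).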
CtBP-E1A blk – inhibitors of CtBP/E1A interaction; AlphaScreen GST-E1A/His-CtBP binding, 1536-well; hits give low values; control for the full effect not named in the record; activity change, % (no concentration beside the values); 340,000 compounds, 0.49% hits; AID 651724; in the data active means activity change below about -65%; inconclusive means about -30% to -65%; inactive means above about -30%; further: on the % scale 0 is the no-effect control and ±100 the full control effect
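Homogeneous bead-based format: GST-tagged E1A captured on glutathione donor beads, His-tagged CtBP on nickel acceptor beads; compounds precede bead addition by 2 h at 37 °C.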
D2 PAM – potentiates the human D2 dopamine receptor allosterically; P14416; DiscoveRx D2 beta-arrestin cells, luminescence, 90 min; 100% = 57 uM dopamine signal; potentiation, % (no concentration beside the values); 360,000 compounds, 0.23% hits; active = potentiation of 50% or more; inconclusive = 30% to 50%; inactive = 30% or less;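 further: compound concentration not given in the record; tested on top of an EC20 dose of dopamine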
Target sequence (P14416 whole entry, looked up): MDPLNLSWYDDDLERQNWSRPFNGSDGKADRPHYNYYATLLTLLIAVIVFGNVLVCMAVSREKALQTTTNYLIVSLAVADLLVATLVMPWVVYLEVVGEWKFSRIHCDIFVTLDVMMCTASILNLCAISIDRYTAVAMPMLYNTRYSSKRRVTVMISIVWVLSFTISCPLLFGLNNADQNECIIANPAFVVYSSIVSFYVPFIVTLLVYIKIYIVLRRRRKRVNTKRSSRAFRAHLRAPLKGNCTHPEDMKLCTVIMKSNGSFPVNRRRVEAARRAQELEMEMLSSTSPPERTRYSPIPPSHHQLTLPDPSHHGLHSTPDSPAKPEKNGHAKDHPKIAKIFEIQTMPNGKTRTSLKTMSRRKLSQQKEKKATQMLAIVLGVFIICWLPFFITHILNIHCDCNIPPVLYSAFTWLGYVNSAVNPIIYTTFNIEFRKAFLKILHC
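PathHunter D2 cells, attached overnight at 37 deg C, received compound in DMSO plus dopamine at EC20 (50 nM final) for 90 min at 37 deg C. Beta-arrestin recruitment was read as luminescence after 1 h with detection reagent at ambient temperature.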
TRPML1 blocker – human mucolipin-1 channel inhibition. Q9GZU1. TRPML1-inducible cells, Ca2+ dye fluorescence, FDSS; hits give low values; inhibition of EC80 agonist-evoked calcium signal. activity change, negative = inhibition, % (concentration not given with the values). 390,000 compounds, 0.02% hits. AID 624415; in the data active means activity change below about -50%; inconclusive means about -30% to -50%; inactive means above about -30%;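 further: stimulus is agonist 54-4 at its EC80 concentration; on the % scale 0 is the no-effect control and ±100 the full control effect; the text of the record puts the active cut at -80%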
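Tet-induced TRPML1-DL cells loaded with Ca8 no-wash calcium dye were read kinetically on FDSS. Compound addition was followed by EC80 agonist 54-4 (4 uM final); inhibition was read over 110 s.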
Starred values were filed as active, the others as inactive; ? = inconclusive; · = not tested or not shown; & = joins results of further samples.

SMILES	TRPV1 PAM	D2 PAM	Six1-Eya2 inh	TRPML1 ag	CtBP-E1A blk	TRPML1 blocker
Cc1ccc(-n2ncc3c(=O)n(CC(=O)NCC4CCCO4)cnc32)cc1 (stereo unspecified)	5	27	2	0.4	-7	-7
C(=N\n1cnnc1)/c1ccccc1OCCOc1ccccc1	-17	3	1	-0.9	-4	2
COC(=O)c1ccc(OC(C)C(=O)c2ccc(C)cc2)cc1 (stereo unspecified)	-4	-2	15	0.3	18	10
O=S(=O)(c1ccccc1)N(CC(O)CN1CCCCC1)c1ccccc1 (stereo unspecified)	-4	0	7	-0.4	1	-4
Cc1c(NS(=O)(=O)c2cc(C(=O)NCCc3ccc(F)cc3)cc(Cl)c2Cl)c(=O)n(-c2ccccc2)n1C	?	-10	2	0.1	10	9
COc1ccc(C(c2nnnn2Cc2cccs2)N2CCN(c3ccccc3F)CC2)cc1 (stereo unspecified)	-12	-25	-11	1.8	-1	4
CCOC(=O)c1c(CN2CCN(c3ccccc3)CC2)oc2ccc(O)cc12	-6	-7	-24	0.4	-13	11
O=C(CSc1nccc(=O)[nH]1)Nc1ccc(N2CCOCC2)cc1	16	13	3	0.2	3	-2
COc1ccc(NC(=O)CC2SC(=NCc3ccccc3OC)NC2=O)cc1 (stereo unspecified)	27	-13	-1	0.0	13	24
CSCCC(NC(=O)c1ccccc1)C(=O)NCCc1ccc2c(c1)OCCO2 (stereo unspecified)	-11	-28	17	-0.1	-6	-3
CC(=O)Nc1ccc(C(=O)N(C2=NC(C)CS2)c2ccc(Cl)cc2)cc1 (stereo unspecified)	-6	-1	-7	0.2	1	-5
Cc1ccc(N(CC(=O)N/N=C/c2cc(C)n(-c3ccccc3C)c2C)S(C)(=O)=O)cc1	-8	-1	-23	1.5	-7	-20
COCC(=O)NCCSc1c(C)[nH]c2ccccc12	5	-6	5	-0.4	-13	33
CC1(C)NC(=O)N(CC(=O)N2CCN(c3cccc(C(F)(F)F)c3)CC2)C1=O	11	-11	27	0.2	1	-4
O=C(CSc1nnc(Cc2cccs2)n1Cc1ccco1)Nc1cc(Cl)cc(Cl)c1	0	-17	-2	1.4	3	3
Cc1nc(SCC(=O)N2CCN(c3ccccc3)CC2)c2oc3ccccc3c2n1	?	1	-6	1.8	-8	14
O=C(Nc1cccc(S(=O)(=O)N2CCOCC2)c1)c1ccccc1[N+](=O)[O-]	-15	-8	0	-0.4	·	-11
CCN1C(=O)[C@H]2[C@@H](c3ccc(C)cc3)N3C(=O)N(c4cccc(F)c4)C(=O)[C@@]3(Cc3ccc(Cl)cc3)[C@H]2C1=O	23	-11	-2	1.5	·	1
COc1cc2ccnc(C=NO)c2cc1OC	·	-8	-86*	0.1	-28	-11
O=C(O)c1cc(-c2cccs2)nn1-c1ccccc1	7	-8	2	0.2	-9	7
COc1ccc(N2CCN(C(=O)CCS(=O)(=O)c3ccc(OC)cc3)CC2)cc1	7	-4	0	0.5	·	-1
CCOc1ccc(S(=O)(=O)NCCc2cn3ccccc3n2)cc1	-3	-4	1	0.2	-9	0
Cc1ccc(CNC(=O)CC(C)S(=O)(=O)c2cc3c(cc2C)NC(=O)CO3)cc1 (stereo unspecified)	-4	0	7	0.0&2.4	3	-13&37
Fc1ccc(-c2nnc(SCc3ncc(-c4ccccc4)o3)n2CC2CCCO2)cc1 (stereo unspecified)	-5	-6	1	-0.9	-1	-7
COc1cc(NC(=O)CCN2CCN(c3ccccc3F)CC2)cc(OC)c1	-13	-16	-20	0.8	-6	76
COc1ccc(-c2ccc(CN3C(C(C)C)C(=O)N(Cc4cn(CC5CCCCC5)nn4)CCS3(=O)=O)cc2)cc1 (stereo unspecified)	·	-7	-8	1.4	-19	-5
Nc1ccc(C23CC4CC(CC(CO)(C4)C2)C3)cc1	-2	-3	-2	-0.5	-1	17
Cc1cc(NC(=O)CSc2nnc(C(C)N(C)C)n2Cc2ccccc2)no1 (stereo unspecified)	1	-5	13	-0.4	3	-24
CCCN1C(=O)C(NC(C)=O)c2cc(OC)ccc21 (stereo unspecified)	·	16	4	-0.8	7	-8
O=C(Nc1ccc(NC(=O)C23CC4CC(CC(C4)C2)C3)cn1)c1ccco1	0	-14	0	-0.9	3	-3

In the list so far, two have an NH in an aromatic ring.
SMILES	TRPV1 PAM	D2 PAM	Six1-Eya2 inh	TRPML1 ag	CtBP-E1A blk	TRPML1 blocker
O=C(CSc1nccc(=O)[nH]1)Nc1ccc(N2CCOCC2)cc1	16	13	3	0.2	3	-2
COCC(=O)NCCSc1c(C)[nH]c2ccccc12	5	-6	5	-0.4	-13	33

Not a retest: entries from further up.
SMILES	TRPV1 PAM	D2 PAM	Six1-Eya2 inh	TRPML1 ag	CtBP-E1A blk	TRPML1 blocker
CCCN1C(=O)C(NC(C)=O)c2cc(OC)ccc21 (stereo unspecified)	·	16	4	-0.8	7	-8
O=C(Nc1ccc(NC(=O)C23CC4CC(CC(C4)C2)C3)cn1)c1ccco1	0	-14	0	-0.9	3	-3

Next part
SMILES	TRPV1 PAM	D2 PAM	Six1-Eya2 inh	TRPML1 ag	CtBP-E1A blk	TRPML1 blocker
COc1ccc(-c2csc(N3CCC(c4ccccc4)C3)n2)cc1 (stereo unspecified)	3	4	5	-0.8	-1	18
O=S(=O)(c1cccc2cccc(Cl)c12)N1CCCC1	3	-9	-2	2.1	5	49
Cc1ccc(N(CC(=O)NC2CCCC2)C(=O)CNC(=O)c2cccs2)c(C)c1	?	-2	-2	-0.3	1	-2
O=C(C1CCCN(S(=O)(=O)c2cccnc2)C1)N1CCn2c1nc1ccccc12 (stereo unspecified)	14	-2	6	0.0	-21	6
COc1ccc(CNC(=O)c2ccc3ccccc3n2)cc1	-5	-4	18	·	·	·
O=C(COC(=O)/C=C/c1ccc(Cl)cc1)Nc1cccc(S(=O)(=O)NC2=NCCCCC2)c1	·	-3	-7	1.1	-84*	5
Cc1cccc2cc(COC(=O)C3CCCO3)c(=O)[nH]c12 (stereo unspecified)	-8	-20	5	0.1	1	13
O=C(Nc1ccc(S(=O)(=O)Nc2nccs2)cc1)c1nn(-c2ccccc2)ccc1=O	1	-6	-20	0.0	·	2
CC(=O)Nc1cc(-c2ccc(F)cc2)[nH]n1	-3	10	3	0.8	-2	-7
CN1C(N)=NC(=O)/C1=C/c1ccc(F)cc1	8	5	7	0.2	·	-19
COc1ccc(NC(=O)CN(c2cc(C)cc(C)c2)S(=O)(=O)c2c(C)n[nH]c2C)cc1	-2	8	-15	-0.2	-22	-8
CCCN(C(=O)c1cccc(S(=O)(=O)N2CCN(Cc3ccccc3)CC2)c1)C1CCS(=O)(=O)C1 (stereo unspecified)	0	9	-1	-0.6	3	-7
O=C(NCCC1=CCCCC1)c1ccc(CN2CCOCC2)cc1	-16	-4	-29	-0.3	13	1
COc1ccc(-c2[nH]ncc2CNC(C)CCn2cccn2)cc1F (stereo unspecified)	-1	-14	2	0.4	-5	27
Cc1ccc(S(=O)(=O)N(C)C)cc1NC(=O)COC(=O)C1=COCCO1	2	-5	5	-0.3	·	6
CCc1cccc(CC)c1N(COC)C(=O)Cn1c(C(C)O)nc2ccccc21 (stereo unspecified)	-7	-16	-1	-0.4	7	2
Cc1ccccc1OCC(=O)NC(=S)Nc1ccc(N2CCCC2)cc1	27	-6	-8	0.1	-5	22
COC(=O)c1sccc1NC(=O)Nc1cccc(C)c1C	-6	1	0	0.9	2	13
CCSc1nnc(Cc2cc(=O)[nH]c(=O)[nH]2)n1-c1ccc(Cl)cc1	-5	-7	0	-0.9	5	-4
O=C(O)C1=C[C@@H](c2ccccc2)C[C@@H](OCc2ccc(CO)cc2)O1	-2	3	-4	0.1	2	-16
Cc1ccc(C)c(C(C)NC(=O)c2ccc(Br)o2)c1 (stereo unspecified)	-19	-4	17	0.1	-11	-17
O=C(NCCS(=O)(=O)N1CCN(c2cccc(Cl)c2)CC1)C1CC1	-20	17	-6	-0.3	2	4
COc1ccc(CCNc2ncnc3sccc23)cc1OC	-7	1	-10	-0.8	-1	-1
Cc1ccc(-c2nn(-c3ccccc3)cc2/C=C(\C#N)c2cccc(C#N)c2)o1	-14	13	5	-0.4	6	9
Cc1cc(-c2ccccc2)[nH]c(=O)c1S(=O)(=O)c1ccc(Cl)cc1	·	3	6	-0.3	8	20
CC1Cc2ccccc2N1Cc1nc2cc(C(F)(F)F)ccc2c(=O)[nH]1 (stereo unspecified)	-9	22	-1	1.6	6	-3
CN(Cc1ccccc1F)C(=O)CNC(=O)Cc1cccc2ccccc12	-17	-19	0	-0.1	4	-11
O=C(Nc1cccnc1)C1Cc2c(-c3ccc4c(c3)OCO4)ccnc2O1 (stereo unspecified)	·	-7	-9	-0.8	1	·
CCn1c(=O)c([N+](=O)[O-])c(N2CCSCC2)c2ccccc21	-17	-7	3	1.6	-12	-7
Cc1ccc(-c2nnn(CC(=O)N(Cc3cccs3)C(C(=O)NC3CCCC3)c3ccco3)n2)o1 (stereo unspecified)	1	-4	2	1.5	2	-2

The results go on.
SMILES	TRPV1 PAM	D2 PAM	Six1-Eya2 inh	TRPML1 ag	CtBP-E1A blk	TRPML1 blocker
COc1ccc(/C=C2\SC(=S)N(CCC(=O)Nc3cccc(C(=O)O)c3)C2=O)cc1OC	14	-2	-5	0.7	-9	0
C=CCN=C1SC(CC)C(=O)N1S(=O)(=O)c1ccc(C)cc1 (stereo unspecified)	1	-14	8	-0.1	11	21
NS(=O)(=O)c1ccc(CNC(=O)c2ccc(Cl)c([N+](=O)[O-])c2)cc1	8	-3	3	0.0	0	-18
C=CCN1C(=O)/C(=C\c2ccc(Cl)cc2)N=C1SCC(=O)NCCC	-19	-2	4	-0.2	1	-15
CC1CCN(CCCCOc2ccccc2F)CC1	-5	-23	7	0.2	2	54
COc1cc(/C=C/C(=O)OC(C)C(=O)Nc2c(C)n(C)n(-c3ccccc3)c2=O)ccc1O (stereo unspecified)	19	2	3	-0.1	2	1
CC(Cl)OC(=O)Nc1cccc2cccnc12 (stereo unspecified)	0	·	·	1.4	·	7
COc1cccc(/C=C/C(=O)OCC(=O)c2c[nH]c3ccccc23)c1	-14	-1	-16	2.8	-78*	19
CC(=O)c1oc2ccccc2c1NC(=O)COC(=O)c1ccc(-n2nc(C)cc2C)cc1	8	14	4	-0.1	4	-12
Cc1onc(-c2ccccc2Cl)c1C(=O)NCc1cccnc1	9	0	3	1.4	7	41
Cn1c(=O)c2c(nc(NCCNC(=O)c3ccco3)n2Cc2ccccc2Cl)n(C)c1=O	9	-5	1	-0.2	-3	11
CC(=O)N1c2ccc(S(=O)(=O)N3CCC(C(=O)Nc4cccc(C)n4)CC3)cc2CC1C (stereo unspecified)	20	-11	4	0.1	-4	4

Some values from above.
For TRPV1 PAM, Cn1c(=O)c2c(nc(NCCNC(=O)c3ccco3)n2Cc2ccccc2Cl)n(C)c1=O reads 9
For TRPML1 ag, COc1ccc(/C=C2\SC(=S)N(CCC(=O)Nc3cccc(C(=O)O)c3)C2=O)cc1OC reads 0.7
For TRPML1 blocker, NS(=O)(=O)c1ccc(CNC(=O)c2ccc(Cl)c([N+](=O)[O-])c2)cc1 reads -18
For Six1-Eya2 inh, COc1cc(/C=C/C(=O)OC(C)C(=O)Nc2c(C)n(C)n(-c3ccccc3)c2=O)ccc1O (stereo unspecified) reads 3
